TRHR PAM – TRH receptor (human) allosteric enhancement; TRHR cells, fluo-8 calcium fluorescence, EC20 TRH enhancement; AID 493056; hit rate 0.66% among 360,000; enhancement, % at 2 µM; P34981; in the data active = enhancement above about 30%; also: 0% is about no effect
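Enhancer read-out: after compound pinning and an initial kinetic agonist-mode read, an EC20 of TRH (10 nM final) was injected and fluo-8 calcium signal (Ex 480/Em 530) followed at 1 s/cycle for 100 cycles in TRHR-expressing cells.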
RXFP1 antag – antagonists of human relaxin receptor RXFP1. Q9HBX9. HEK293-RXFP1, relaxin-stimulated cAMP HTRF, 30 min; active compounds read low. activity change, negative = inhibition, % at 57.5 µM. hit rate 0.59% among 350,000;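 active = activity change of -60% or lower, but not beyond a set lower limit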; also: % is scaled to controls: 0 for no effect and ±100 for the full control effect
Target sequence (Q9HBX9 whole entry, looked up): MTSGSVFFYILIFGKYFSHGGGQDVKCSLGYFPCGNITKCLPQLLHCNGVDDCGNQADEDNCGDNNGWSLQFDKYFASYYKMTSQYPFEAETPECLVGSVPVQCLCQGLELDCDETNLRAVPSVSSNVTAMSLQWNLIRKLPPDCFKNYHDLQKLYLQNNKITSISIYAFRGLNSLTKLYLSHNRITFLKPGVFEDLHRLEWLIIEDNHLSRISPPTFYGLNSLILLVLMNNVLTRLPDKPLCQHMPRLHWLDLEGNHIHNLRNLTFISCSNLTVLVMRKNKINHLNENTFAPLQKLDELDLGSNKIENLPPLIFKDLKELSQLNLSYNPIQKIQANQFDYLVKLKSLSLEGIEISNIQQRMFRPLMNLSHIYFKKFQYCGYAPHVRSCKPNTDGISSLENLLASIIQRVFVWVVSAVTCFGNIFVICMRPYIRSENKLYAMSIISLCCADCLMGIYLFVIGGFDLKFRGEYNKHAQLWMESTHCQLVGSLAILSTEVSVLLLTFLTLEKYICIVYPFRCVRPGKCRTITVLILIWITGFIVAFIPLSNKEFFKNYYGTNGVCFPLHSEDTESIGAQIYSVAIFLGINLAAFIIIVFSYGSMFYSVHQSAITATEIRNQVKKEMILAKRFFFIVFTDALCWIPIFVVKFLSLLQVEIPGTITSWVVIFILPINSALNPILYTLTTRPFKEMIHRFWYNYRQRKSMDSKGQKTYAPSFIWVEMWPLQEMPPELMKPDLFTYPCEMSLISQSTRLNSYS
TRHR ag – TRH receptor (human) agonism; P34981; activation, % at 2 µM; hit rate 0.18% among 360,000; TRHR cells, calcium flux fluo-8, FDSS agonist mode; in the data active = activation above about 30%; also: 0% is about no effect
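Steps: seed TRHR cells overnight; add fluo-8 no-wash Ca dye, RT 30 min–1.5 h; record 10 s baseline; pin-transfer compounds; monitor fluorescence 1 cycle/s for the agonist window. Calcium increases flag candidate agonists.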
Active calls of the source: *; . = no result given; & = joins results of further samples. An excerpt, so the mix of outcomes need not match the whole.

The opening four records (preview)
#1 OCCOCCN1CCN(C2=Nc3ccccc3Sc3ccccc32)CC1
  TRHR PAM: -6&1	RXFP1 antag: -13	TRHR ag: 0.6&0.1

#2 c1cnc(N2CCN(Cc3ccc4c(c3)OCO4)CC2)nc1
  TRHR PAM: -2&26	RXFP1 antag: -4	TRHR ag: -0.2&-0.3

#3 CC(C)c1nc(CN(C)C(=O)N[C@H](C(=O)N[C@@H](Cc2ccccc2)C[C@H](O)[C@H](Cc2ccccc2)NC(=O)OCc2cncs2)C(C)C)cs1
  TRHR PAM: -10	RXFP1 antag: -9	TRHR ag: -0.6

#4 CC(C)NC[C@@H](O)COc1cccc2ccccc12
  TRHR PAM: -5	RXFP1 antag: 17	TRHR ag: 0.4

The whole of this part, previewed entries included:
#1 OCCOCCN1CCN(C2=Nc3ccccc3Sc3ccccc32)CC1
  TRHR PAM: -6&1	RXFP1 antag: -13	TRHR ag: 0.6&0.1

#2 c1cnc(N2CCN(Cc3ccc4c(c3)OCO4)CC2)nc1
  TRHR PAM: -2&26	RXFP1 antag: -4	TRHR ag: -0.2&-0.3

#3 CC(C)c1nc(CN(C)C(=O)N[C@H](C(=O)N[C@@H](Cc2ccccc2)C[C@H](O)[C@H](Cc2ccccc2)NC(=O)OCc2cncs2)C(C)C)cs1
  TRHR PAM: -10	RXFP1 antag: -9	TRHR ag: -0.6

#4 CC(C)NC[C@@H](O)COc1cccc2ccccc12
  TRHR PAM: -5	RXFP1 antag: 17	TRHR ag: 0.4

#5 O=C(CCN1C(=O)CSc2ccccc21)Nc1ccc(C(F)(F)F)cc1
  TRHR PAM: 1	RXFP1 antag: -11	TRHR ag: -0.3

#6 N#Cc1ccc(CNC(=O)N2CCOCC2)cc1
  TRHR PAM: 12	RXFP1 antag: 6	TRHR ag: -0.2

#7 NC(=O)C1CCN(C(=O)Nc2ccccc2)CC1
  TRHR PAM: 2	RXFP1 antag: -2	TRHR ag: 0.8

#8 CC(C)NCC(O)c1ccc(O)c(O)c1 (configuration not stated)
  TRHR PAM: 36*	RXFP1 antag: 12	TRHR ag: -0.1

#9 O=C1CCc2ccc(OCCCCN3CCN(c4cccc(Cl)c4Cl)CC3)cc2N1
  TRHR PAM: -2	RXFP1 antag: -10	TRHR ag: -0.3

#10 CCNC(=O)[C@H]1O[C@@H](n2cnc3c(N)nc(NCCc4ccc(CCC(=O)O)cc4)nc32)[C@H](O)[C@@H]1O
  TRHR PAM: 3	RXFP1 antag: .	TRHR ag: -0.5

An excerpt from above with just TRHR PAM.
entry | Molecule | TRHR PAM
2 | c1cnc(N2CCN(Cc3ccc4c(c3)OCO4)CC2)nc1 | -2&26
8 | CC(C)NCC(O)c1ccc(O)c(O)c1 (configuration not stated) | 36*
